Screening results from PubChem BioAssay.
Polio RdRp inh = inhibitors of poliovirus RNA polymerase binding and polymerization | P03300 | poliovirus polymerase elongation, fluorescence polarization; stronger effect = lower value | % elongation, % (compound at 16.7 µg/mL) | 150,000 tested, 0.66% active | AID 588519; in the data active = % elongation below about 90%; note: some results filed as inactive read as strong as hits
Target sequence (P03300 1749-2209 limits assumed): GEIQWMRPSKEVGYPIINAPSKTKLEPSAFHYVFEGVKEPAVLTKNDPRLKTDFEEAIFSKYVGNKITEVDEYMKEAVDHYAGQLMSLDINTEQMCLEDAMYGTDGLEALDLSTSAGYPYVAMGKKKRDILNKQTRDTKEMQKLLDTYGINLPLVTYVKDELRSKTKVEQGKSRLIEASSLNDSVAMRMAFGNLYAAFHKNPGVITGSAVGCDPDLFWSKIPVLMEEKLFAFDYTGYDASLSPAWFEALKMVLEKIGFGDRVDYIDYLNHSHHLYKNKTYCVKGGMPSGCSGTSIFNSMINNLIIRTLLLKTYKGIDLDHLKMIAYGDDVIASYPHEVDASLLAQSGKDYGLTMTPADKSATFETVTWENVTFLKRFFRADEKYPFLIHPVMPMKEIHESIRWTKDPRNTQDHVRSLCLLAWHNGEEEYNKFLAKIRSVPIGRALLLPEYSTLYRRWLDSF
Mtb MbtI inh = blocks the Mycobacterium tuberculosis siderophore enzyme MbtI; purified MbtI enzyme, fluorescence intensity read-out; inhibition, %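 (about 17 µg/mL by stock and volumes)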; 100,000 tested, 0.89% active; P9WFX0;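 active = above 50% in both replicates, above 80% if mildly self-fluorescent; inactive = the rest, strongly fluorescent compounds included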;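 note: 0% = mean of negative and 100% = mean of positive controls; one replicate is shown; some compounds called inactive have numbers as strong as hits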
Mtb MenB inh = inhibitors of Mycobacterium tuberculosis MenB enzyme; P9WNP5; MenB enzyme assay, absorbance read-out; some hits fall short of the stated cut; inhibition, %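 (about 12 µg/mL by stock and volumes)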; 100,000 tested, 0.43% active;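 active = mean of two replicates above 30%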;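 note: 0% = no compound and 100% = wells with inactive enzyme; the first replicate is given; strong numbers were not always called active; inactives centre near -10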
Target sequence (P9WNP5 whole entry, looked up): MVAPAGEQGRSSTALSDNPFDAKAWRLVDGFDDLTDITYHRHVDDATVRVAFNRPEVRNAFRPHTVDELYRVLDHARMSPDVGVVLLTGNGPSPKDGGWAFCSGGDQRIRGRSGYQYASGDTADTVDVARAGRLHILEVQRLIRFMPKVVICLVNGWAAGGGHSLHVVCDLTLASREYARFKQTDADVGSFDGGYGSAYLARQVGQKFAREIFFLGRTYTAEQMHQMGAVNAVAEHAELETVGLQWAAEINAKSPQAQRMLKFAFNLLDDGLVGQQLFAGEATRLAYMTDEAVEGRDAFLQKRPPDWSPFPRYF
Polio RdRp inh intensity = second read-out of Polio RdRp inh, no call of its own (marks repeat the call); % elongation; measured here: total intensity read-out; formula for this scale not given here;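 total fluorescence in place of polarization; lower means less elongation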
Active calls of the source: *; i = inactive; . = not tested or not shown; & = joins results of further samples.

SMILES	Polio RdRp inh	Polio RdRp inh intensity	Mtb MbtI inh	Mtb MenB inh
CC1CCC(=NNC(=O)Cc2ccccc2)CC1 (stereo not given)	101	102	6	-24
CC(=O)N(C)c1ccc(N=Cc2ccc[nH]2)cc1	99	101	15	15
CCCNC(=O)c1cnn2c(C)c(Cc3ccc(F)cc3)c(C)nc12	101	103	50	-18
O=C(Cc1ccc2ccccc2n1)C(F)(F)F	102	102	19	i
CCOC(=O)c1ccoc1CN1CCN(C/C=C/c2ccccc2)CC1	104	89	14	-32
CCCn1c(NC(=O)c2ccccc2)nc2ccccc21	110	116	-67	-47
CC1C(=O)NN=C1C(=O)N/N=C/c1ccc(OC(=O)c2ccco2)cc1 (stereo not given)	99	98	-4	-7
COc1ccccc1NC(=O)c1ccc(C(C)(C)C)cc1	107	107	.	-13
CSc1ccc(Cl)c(C(=O)OCC(=O)NCc2ccccc2)c1	100	99	-4	.
COc1ccccc1N1CCN(C(=O)c2sc3nc(-c4ccc(F)cc4)cn3c2C)CC1	102	103	0	-23
O=C1c2cccnc2C(=O)N1Cc1ccc(S(=O)(=O)N2CCc3ccccc32)cc1	104	100	-4	-8
C=CCN1C(=O)CN=C1NCc1ccccc1	100	99	-12	-20
Cc1ccc(Nc2nc3ccccc3o2)cc1F	103	99	-50	-8
O=C(CCSc1nnnn1-c1ccccc1)Nc1ccc(Cl)cc1	100	98	-15	-28
CNC(=O)CN1C(=O)c2cccnc2Oc2ccc(Cl)cc21	100	100	-5	-20
CCOC(=O)C(C)Sc1nc(-c2ccccc2)ccc1C#N (stereo not given)	105&98	109&107	9	-4
CN(C)c1ccc(C(=O)Nc2ccc(CN3CCS(=O)(=O)CC3)cc2)cc1	102	95	4	-14
O=C(NCc1cn2ccccc2n1)c1ccco1	102	106	20	-1
CC1=Nc2c(ccc3cccnc23)C1(C)C	94	122	77	-23
CCc1ccc(-c2nc(CSCC(=O)N3CCc4ccccc43)c(C)o2)cc1	103	104	9	-18
CCOC(=O)C(C)Sc1nnc(-c2ccc(F)cc2)o1 (stereo not given)	101	102	-9	-11
Cc1nn(-c2ccc(Cl)cc2)c(N)c1C1(O)C(=O)N(C)c2ccccc21 (stereo not given)	101	108	-17	.
Cc1cc2occ(CC(=O)Nc3ccc(S(=O)(=O)C(F)F)cc3)c2cc1C	106	107	-8	-22
Cc1ccc(S(=O)(=O)NC(=O)c2ccc(Cl)nc2Cl)cc1	62*	52*	-4	.
C(=NN1CCN(C2c3ccccc3-c3ccccc32)CC1)c1cccs1	103	110	.	-24
Cc1ccccc1Nc1nc(N)nc(Cn2cc(C(F)(F)F)ccc2=O)n1	102	106	5	1
CC(=O)[C@H]1CC[C@H]2[C@@H]3CC[C@H]4C[C@H](O)CC[C@]4(C)[C@H]3C(=O)C[C@]12C	99	99	-13	-4
COc1cccc(N2C(=O)c3cccnc3C2O)c1 (stereo not given)	101	104	1	-4
CSc1cccc(NC(=O)C2COc3ccccc3O2)c1 (stereo not given)	103	105	-7	-17
Cc1cc(C)c2nc(NC(=O)Cc3ccccc3)sc2c1	103	108	-7	.
CCOc1ccc(-c2c(C#N)c(N)nc3sc(C(=O)OC)c(N)c23)cc1	101	105	-24	13
O=C(CN1CCN(Cc2ccc(F)cc2Cl)C1=O)NCc1ccc(Cl)cc1	102	100	-2	2
O=C(O)C1C(c2ccccc2)C(C(=O)N2CCCCC2)C1c1ccccc1 (stereo not given)	100	103	-4	22
COc1ccc(-c2nc3ccccc3o2)cc1NC(=S)NC(=O)CC(C)C	102	103	0	7
CCC(CO)NC(=O)/C=C/c1ccc(OC)c(OC)c1 (stereo not given)	102	107	-13	.
CCc1ccc(NC(=O)NCCN2CCc3ccccc3C2)cc1	99	103	2	-6
CCc1cccc(NC(=S)N(CCOC)C(C)c2ccco2)c1 (stereo not given)	100	100	0	-42
COc1ccc(C(=O)CN2C(=O)COc3ccccc32)cc1	108	112	.	-13
CC(C)N(C(=O)c1ccc(-c2nnc(-c3ccccc3)o2)cc1)C(C)C	99	94	.	-24
Cc1nc(NCc2ccccc2)sc1C(=O)N(C)C	108	104	0	-8
O=C(COc1ccccc1C(=O)O)Nc1ccccc1F	102	97	1	.
CC1(CCc2ccccc2)NC(=O)N(CN2CCN(c3ccccc3F)CC2)C1=O (stereo not given)	.	.	2	-9
COc1ccc(C2CC(c3cccs3)=NN2C(=O)Cn2nnc(-c3cccnc3)n2)cc1OC (stereo not given)	.	.	-31	-7
CCn1c(=S)[nH]c2ccccc21	100	102	36	-26
O=C(O)c1nccnc1C(=O)OCCCc1ccncc1	101	101	16	15
Cc1cc(C)n(C(CC(=O)O)C(=O)O)n1 (stereo not given)	102	99	-21	-30
C=CCN=c1scc(-c2ccco2)n1/N=C/c1c[nH]c2ccccc12	109	105	0	-43
Cc1cc(C)c(C(N)=O)c(SCC(=O)N2CCc3ccccc3C2)n1	103	107	99	-30
CCCC(=O)c1c(O)[nH]c(=O)[nH]c1=O	103	99	.	0
Cc1ccn(CCC(=O)NCCN2CCc3ccccc3C2)n1	104	100	-1	-20
CS(=O)(=O)N(CCCCn1c2ccccc2c2ccccc21)Cc1ccco1	.	.	27	-29
Cc1nn(-c2ccccc2)c2sc(C(=O)OCCN3c4cccc5cccc(c45)S3(=O)=O)cc12	104	106	104	-22
CN(C)S(=O)(=O)c1ccc(S(=O)(=O)N(Cc2ccccc2F)C2CC2)cc1	105	103	-8	5
N#Cc1ccc(Cl)cc1NC(=O)CSc1nnc(-c2c[nH]c3ccccc23)n1CC1CCCO1 (stereo not given)	104	106	10	-44
COc1ccc(S(N)(=O)=O)cc1C(=O)NCC1CCCO1 (stereo not given)	107	105	-3	-23
CC(C)(C)c1cc(-c2ccccc2)n[nH]1	105	101	-6	-63
CC(C)(C)OC(=O)NC1CCN(S(=O)(=O)c2ccc3c(c2)OCCO3)CC1	102	104	-16	-22
COc1cc(/C=C2\SC(N(C)c3ccc(O)cc3)=NC2=O)ccc1O	104	106	21	-87
COc1ccc(/C=C/C(=O)N(C)c2ccccc2C(=O)O)cc1	101	91	4	-14
CCn1cc(-c2ccc3ccccc3n2)c(=S)c2ccccc21	98	104	32	-156

4 compounds drawn at random from the list so far:
SMILES	Polio RdRp inh	Polio RdRp inh intensity	Mtb MbtI inh	Mtb MenB inh
CCCC(=O)c1c(O)[nH]c(=O)[nH]c1=O	103	99	.	0
O=C(O)c1nccnc1C(=O)OCCCc1ccncc1	101	101	16	15
N#Cc1ccc(Cl)cc1NC(=O)CSc1nnc(-c2c[nH]c3ccccc23)n1CC1CCCO1 (stereo not given)	104	106	10	-44
Cc1cc(C)n(C(CC(=O)O)C(=O)O)n1 (stereo not given)	102	99	-21	-30

(listing goes on)
SMILES	Polio RdRp inh	Polio RdRp inh intensity	Mtb MbtI inh	Mtb MenB inh
O=C(CSc1ncn[nH]1)c1ccc(Cl)cc1	101	100	42	20
COc1ccc(C(=O)Nc2nc3c(s2)CC(C)CC3)c(OC)c1 (stereo not given)	100	100	57	-5
CN(C)c1ccc(C2=CC=CC(=C3C=CC(=[N+](C)C)C=C3)O2)cc1	99	87	84*	-53
Cc1ccc(CNC(=O)CN2CCC(n3nnc4cc(C)ccc43)CC2)cc1	100	105	-1	-52
CCS(=O)(=O)N1CCN(c2cnn(-c3ccccc3)c(=O)c2Cl)CC1	107	102	-8	-23
O=C1CCc2cc(S(=O)(=O)N3CCCC3C(=O)N3CCN(c4ccc(Cl)cc4)CC3)ccc2N1 (stereo not given)	100	102	-25	-9
COc1cc(CCc2cc(OC)c(C)cc2OC)c(OC)cc1C	107	109	8	6
CSc1ncc(C(=O)NCc2cccc(C)c2)c(C)n1	104	105	-19	-4
O=C(Nc1ccccc1)C1C2C=CC(C2)C1C(=O)Nc1ccccc1 (stereo not given)	106	106	.	-7
Cc1noc(C)c1C(=O)OCC(=O)N1CCCCC1C (stereo not given)	94	88	-15	14
CCc1ccc(-n2c(=O)oc3ccc(Cl)cc3c2=O)cc1	102	102	-47	1
COc1ccc(CNC(=O)COc2ccc(C#N)cc2)cc1	101	104	-2	.
Cn1c(SCCSc2cccc(C(F)(F)F)c2)nnc1-c1ccco1	107	111	-6	-26
O=c1c2ccc(-c3n[nH]c(=S)o3)cc2nc2n1CCCCC2	104	98	26	-28
O/N=C1\CCC\C1=C/c1ccco1	99	101	6	.
O=c1cc(-c2c(F)c(F)c(F)c(F)c2F)oc2c(F)c(F)c(F)c(F)c12	90*	77*	29	-31
CCOC(=O)c1ccoc1COC(=O)/C=C/c1ccc(SC)cc1	109	111	103	-10
CC[n+]1c(C)sc2ccc(CC(=O)[O-])cc21	104	105	-5	.
Nc1nccnc1C(=O)O	101	100	3	-22
O=C1c2cccnc2C(=O)N1CCc1ccc(S(=O)(=O)NC2CCCCCC2)cc1	104	102	-2	-30

An excerpt from above in order of formula weight, rising.
SMILES	Polio RdRp inh	Polio RdRp inh intensity	Mtb MbtI inh	Mtb MenB inh
CCCC(=O)c1c(O)[nH]c(=O)[nH]c1=O	103	99	.	0
COc1ccc(C(=O)CN2C(=O)COc3ccccc32)cc1	108	112	.	-13
C(=NN1CCN(C2c3ccccc3-c3ccccc32)CC1)c1cccs1	103	110	.	-24
O=C(O)C1C(c2ccccc2)C(C(=O)N2CCCCC2)C1c1ccccc1 (stereo not given)	100	103	-4	22

New compounds follow:
SMILES	Polio RdRp inh	Polio RdRp inh intensity	Mtb MbtI inh	Mtb MenB inh
CCOC(=O)c1cc(C)n(CC2CCC(C(=O)N3CCCC3)CC2)c1C (stereo not given)	102	98	-4	-10
Nc1nc(SCC(=O)c2cccs2)n[nH]1	109	97	6	-48
O=C1NC2(CCc3ccccc32)C(=O)N1CN1CCN(S(=O)(=O)/C=C/c2ccccc2)CC1 (stereo not given)	106	110	-1	-9
CCn1c(=O)c2ccccc2n2c(=S)[nH]nc12	102	99	12	6
Cc1ccc(SCCSc2ncccn2)cc1	101	102	-23	-17
Cc1oc(-c2ccccc2)nc1C(=O)OCc1cc(=O)n2ccsc2n1	105	121	3	4
CCC(=O)Nc1nnc(C)s1	103	104	-10	-4
Cc1nnc(SCC(=O)n2c3ccccc3c3ccccc32)s1	99	101	-7	10
COc1ccc(CCNC(=O)c2n[nH]c(=O)c3ccccc23)cc1OC	103	101	-17&12	-7
Cc1ccc(C)c(C(=O)CSc2nc3ccccc3o2)c1	102	102	-10	-21
COC(=O)c1ccc(C(=O)OC)c2c(C(=O)OC)ccc(C(=O)OC)c12	110	107	.	-5
CCc1sc(-c2nnc(CSc3nnc(-c4ccncc4)n3C)o2)cc1C	106	116	-15	-15
O=C(OCc1nc2ccccc2c(=O)[nH]1)c1ccc(S(=O)(=O)N2CCCC2)cc1	105	111	-9	-12
O=C(Nc1cccnc1)NC1CC(=O)N(c2ccccc2)C1 (stereo not given)	103	95	-4	-23
Cc1occc1-c1nnc(SCC(=O)N(C)C)o1	105	107	-15	-19
S=C(NCC1CCCO1)Nc1ccc(N2CCCCC2)cc1 (stereo not given)	100	96	18	3
CNc1nc(OC)nc(N(C)C)n1	99	99	1	-46
CC(Sc1nc2ccccc2n1CCC#N)C(=O)N1CCCC1 (stereo not given)	104	104	11	6
Cc1nn2c(nc(Cl)c3ccccc32)c1Cl	100	110	33	-13
Cc1sc(NC(=O)c2ccccc2)c(C(c2cccs2)N2CCN(C)CC2)c1C (stereo not given)	99	93	8	-20

Structures shown so far containing a CF3 group, in the order listed:
SMILES	Polio RdRp inh	Polio RdRp inh intensity	Mtb MbtI inh	Mtb MenB inh
O=C(Cc1ccc2ccccc2n1)C(F)(F)F	102	102	19	i
Cc1ccccc1Nc1nc(N)nc(Cn2cc(C(F)(F)F)ccc2=O)n1	102	106	5	1
Cn1c(SCCSc2cccc(C(F)(F)F)c2)nnc1-c1ccco1	107	111	-6	-26

Going on with the list:
SMILES	Polio RdRp inh	Polio RdRp inh intensity	Mtb MbtI inh	Mtb MenB inh
O=C(CSc1ccccc1)OCc1nc2ccsc2c(=O)[nH]1	107	103	15	-19
O=C(CSc1nncs1)Nc1ccccc1	104	98	53	5
O=C(c1cncc(NS(=O)(=O)c2ccc(Cl)cc2)c1)N1CCCc2ccccc21	103	97	0	7
COC(CNC(=O)c1cccc(NS(=O)(=O)c2ccc(C)cc2)c1)OC	102	99	-1	1
Cc1sc(Nc2ccccc2)nc1-c1ccccc1	101	98	-2	-7
CCOC(=O)/C(C#N)=C\c1cc2ccc(OC)cc2[nH]c1=O	88	135	-5	-14
Cc1nn(Cc2cccc3ccccc23)c(C)c1NC(=O)C1CC1c1ccccc1 (stereo not given)	103	94	.	-39
COc1cccc(N(CCN2C(=O)c3ccccc3C2=O)C(=O)C(C)C)c1	104	99	35	5
Nc1cc(-c2ccccc2)nn1CCO	105	106	-4	-23
Cc1cc(C)n(-c2ccc(Cl)c(C(=O)NN3C(C)CCCC3C)n2)n1 (stereo not given)	104	102	-1	-31
COc1ccccc1/C=C1\CC/C(=C\c2ccccc2OC)C1=O	100	104	18	-87
Cc1cc(Cl)ccc1OC1C(=O)N(c2cccc(C(F)(F)F)c2)C1c1ccc2c(c1)OCO2 (stereo not given)	107	101	.	-24
CCCn1nnc(NC(=O)/C=C/c2ccccc2)n1	102	101	15	-16
CC(Sc1nncn1-c1ccccc1)C(=O)N1CCc2ccccc21 (stereo not given)	102	108	3	7
Cc1ccn2c(=O)cc(COc3ccc4c(c3)OCO4)nc2c1	105	102	20	14
COC(=O)COc1ccc2cccc(-n3cnnn3)c2c1	101	100	90	39*
Cc1nnnn1CC(=O)Nc1ccc(F)cc1	106	113	.	-4
NC(=O)c1cccc(C(N)=O)c1	102	110	.	5
